Source: PubChem BioAssay (Fisher Drug Discovery Resource Center)
NPYLR7 agonist – activates Aedes aegypti NPYLR7 receptor | activation, % at 10 µM | AID 1259423 | HEK293T NPYLR7/Galpha15, GCaMP6s calcium fluorescence | hit rate 0.15% among 270,000; in the data active means activation above about 40%;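 further: 0% = vehicle and 100% = reference agonist at the receptor; some compounds past the cut are filed as inactive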
NPYLR7 agonist max-min – also measured in NPYLR7 agonist; calls as there; activation, %; measured here: Max-Min RFU normalised activation; some inactives read as strong as hits;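 span of the calcium signal over five minutes; 0% = vehicle and 100% = native peptide agonist; compound fluorescence can raise it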
The depositor's hits bear a star; & = joins results of further samples. A portion of the library; the hit share may differ from the screen's.

SMILES	NPYLR7 agonist	NPYLR7 agonist max-min
CCO[C@H]1COC[C@@H]1NC(=O)c1ccc2c(c1)nnn2C	-4	-5
O=C(Oc1ccc2ccc(=O)oc2c1)c1ccccc1Cl	7	4
COc1ccccc1CCNC(=O)CN1C[C@H]2C[C@H](O)[C@H](O)C[C@H]2C1	-2	0
Cc1noc(C)c1C1CCCN1Cc1cccn1-c1nccs1 (configuration not stated)	7	5
Cc1cc(C)cc(CS(=O)CC(=O)Nc2cc(C)on2)c1 (configuration not stated)	4	3
COc1ccc(/C=C/C(=O)NCCNc2cc(-n3ccnc3C)nc(C)n2)cc1OC	-15	-19
Cc1ccc(CN2CCN(C(=O)CCc3cccnc3)C(C)C2=O)cc1 (configuration not stated)	1	1
COc1ccc(NC(=O)CSc2nnc(C3CC(=O)N(c4ccc(C)cc4)C3)o2)cc1 (configuration not stated)	-3	2
CN(Cc1cccc2ncccc12)C(=O)c1cccc(-c2ccc(O)cc2)c1	3	0
C=CCOCC(O)CN(CCOC)Cc1ccc(F)cc1F (configuration not stated)	19	31
CCOC(=O)c1ccccc1NC(=O)c1cnn2c1NC(c1ccccc1)CC2C(F)(F)F (configuration not stated)	-6	-9
COc1cccc(OCC(=O)Oc2ccc(C(=O)c3ccc(C)cc3)cc2)c1	21	16
CCOC(=O)c1[nH]c(CSc2n[nH]c(=O)n2CC2CCCO2)c(C(=O)OCC)c1C (configuration not stated)	7	13
CC1=NOC(Cc2ccccc2)C(=O)N1Cc1ccc(S(C)(=O)=O)cc1 (configuration not stated)	7	5
Cc1cccc2sc(N(Cc3cccnc3)C(=O)c3ccccc3[N+](=O)[O-])nc12	-13	-8
N#Cc1ccccc1NC(=O)CCn1cnc2cc(F)ccc2c1=O	0	0
CCNC(=O)C1(C)CCCN(Cc2cccc3ccccc23)C1 (configuration not stated)	-3	-5
O=C(COC(=O)c1ccc(Br)o1)NCCN1C(=O)CSC1=O	3	5
COC(=O)c1ccc(-c2noc(CN3CCC(C(O)Cc4ccccc4)CC3)n2)cc1 (configuration not stated)	19	7
O=C(O)C1(CCCc2ccccc2)CCCN(Cc2ccccn2)C1 (configuration not stated)	-6	-6
COc1ccc(S(=O)(=O)N2CCCC(C)C2)cc1N1CCN(S(=O)(=O)c2cccc([N+](=O)[O-])c2)CC1 (configuration not stated)	8	6
CCOCCCN(CC(=O)N(Cc1ccc2c(c1)OCO2)Cc1sccc1C)C(=O)c1cccs1	5	17
O=C(c1cnccn1)N1CCc2c([nH]c3ccccc23)C1c1cccc(C(F)(F)F)c1 (configuration not stated)	-1	-2
COc1ccc(CCNC(=O)c2cccnc2N2CCN(C(=O)Nc3ccccc3C(C)C)CC2)cc1OC	13	1
O=C(NCCC(c1ccccc1)c1ccccc1)c1ccc(CSc2nnc3ccccn23)cc1	2	-2
CCCC(=O)N1CCCC1(C)C(=O)NCc1ncccc1C (configuration not stated)	-4	-5
CCCCNC(=O)c1nn2c(C(F)(F)F)cc(-c3ccc(OC)cc3)nc2c1Br	-9	-9
CCCC(CCC)N(CC1CC2CCC(C1)N2C)C(=O)CNC(=O)CC(C)(C)C (configuration not stated)	0	-6
COCCNC(=O)c1sc2cc3c(cc2c1Cl)OCO3	-1	-2
COc1cccc(N2C(=O)C3N=NN(Cc4nc(-c5cccc(Cl)c5)oc4C)C3C2=O)c1 (configuration not stated)	12	10
CC(=O)Nc1ccc(N=CC(C#N)c2nc(-c3ccco3)cs2)cc1 (configuration not stated)	7	6
CC1Cc2cc(-c3cc(CC(=O)N4CCC(C(N)=O)CC4)no3)ccc2O1 (configuration not stated)	9	10
CSc1cccc(NC(=O)Cn2ccn3nc(-c4ccc(C)cc4)cc3c2=O)c1	4	5
c1ccc(-c2noc(N3CCCCC3)c2CNCc2ccc3c(c2)OCO3)cc1	13	25
CNC(=S)Nc1cc(S(=O)(=O)c2ccccc2)ccc1OC	3	2
CCN1CCN(c2cc(C(F)(F)F)nc(SCc3ccc(C(=O)O)cc3)n2)CC1	6	13
O=C(CCC1CCCC1)N1CCN(c2ncnc3c2nnn3-c2ccccc2)CC1	-8	-20
Cc1noc(C)c1CN1CC[C@@H](c2ccc3c(c2)OCO3)[C@H](O)C1	13	9
CCN(CC)CCCNC(=O)c1cc(N2CCc3cc(OC)c(OC)cc3C2)nc2ccccc12	4	2
O=C(Cn1nnc2ccccc2c1=O)C12CC3CC(CC(C3)C1)C2	-1	28
CC(C)Cc1noc(CSc2ccccn2)n1	-1	-3
O=C(Cc1cccs1)N1CCC(C2(c3ccccn3)NC(=O)N(CC3CCCO3)C2=O)CC1 (configuration not stated)	21	1
CCCCN(C)CC1CCN(c2ncc(Br)cc2C)CC1	2	1
COC(C)C(=O)Nc1cccc(NC(=O)N2CCCC2c2cccs2)c1 (configuration not stated)	11	10
CCCCOc1ccc(S(=O)(=O)NC(=O)C2(C)CCN2C(=O)c2cccc3ccccc23)cc1 (configuration not stated)	4	1
O=C(NC(c1ccc2ccccc2n1)c1cccs1)C1CCN(Cc2ccc(Cl)cc2)CC1 (configuration not stated)	3	4
Cc1cc(NC(=O)CCC2CC2)n(C2CCCCC2)n1	0	4
O=c1c(-c2ccccc2)nnc2sc(-c3ccncc3)nn12	3	2
O=C(Nc1cccc(-c2cccc(-c3ccc(F)cc3)n2)c1)c1cc2ccccc2s1	0	10
CCOC(=O)C1CCCN(C(=O)c2cc(-c3ccc(OC)cc3OC)nn2-c2ccc(F)cc2)C1 (configuration not stated)	0	11
COc1ccc(CNC(=O)c2cc(NC(=O)CC3CCCC3)cc3nc(C4CCCO4)n(C)c23)cc1 (configuration not stated)	9	-2
CCOc1ccc(CN2CCNC(=O)C2CC(=O)NCC2(c3ccccc3)CCCC2)cc1 (configuration not stated)	6	1
COc1ccc(Cn2c(C)cc(O)c(C(c3ccc(C)cc3)N3CCN(C)CC3)c2=O)cc1 (configuration not stated)	12	4
Cc1cc(C)cc(N2CC(=O)N(c3cc(C)cc(C)c3)CC2=O)c1	4	6
CCOC(=O)c1ccc(N2C(=O)C3C4C=CC(C)(O4)C3C2=O)cc1 (configuration not stated)	-10	-16
O=C(c1cccc(-n2cnnc2)n1)N1CCc2[nH]nc(-c3ccccc3)c2C1	-2	-4
CC(C)NC(=O)CC1(C(=O)Nc2nc(-c3ccc4c(c3)OCO4)cs2)CCCC1	4	3
CC(C)C(=O)Nc1c(-c2ccccc2)c(=O)c2ccccc2n1C	2	0
CCn1nnc2c(NCC(OC)OC)ncnc21	12	10
Cc1ccc(-n2ncc3c(C)nnc(SCC(=O)Nc4ccc5c(c4)OCO5)c32)cc1C	-4	-9

Compound profiles (already shown). Values in the order: NPYLR7 agonist | NPYLR7 agonist max-min
CCCCN(C)CC1CCN(c2ncc(Br)cc2C)CC1 is listed as 2 | 1
CCOc1ccc(CN2CCNC(=O)C2CC(=O)NCC2(c3ccccc3)CCCC2)cc1 (configuration not stated) is listed as 6 | 1
O=C(c1cccc(-n2cnnc2)n1)N1CCc2[nH]nc(-c3ccccc3)c2C1 is listed as -2 | -4
COc1ccc(CNC(=O)c2cc(NC(=O)CC3CCCC3)cc3nc(C4CCCO4)n(C)c23)cc1 (configuration not stated) is listed as 9 | -2
Cc1ccc(-n2ncc3c(C)nnc(SCC(=O)Nc4ccc5c(c4)OCO5)c32)cc1C is listed as -4 | -9

Following part:
SMILES	NPYLR7 agonist	NPYLR7 agonist max-min
CCc1nc2ccc(C(=O)N(C)C(C)C)cn2c1N(C)Cc1nccn1C	-2	-5
COc1ccc(/C=C(\C#N)c2nn(-c3ccccc3)c(N)c2C#N)cc1[N+](=O)[O-]	1	-3
COc1cc(OC)cc(-c2noc(Cn3ccn4nc(-c5ccc(C)cc5)cc4c3=O)n2)c1	-2	-5
CCOC(=O)c1ccc2c(c1)nc(SCc1ccc(C(F)(F)F)cc1C(F)(F)F)n2Cc1ccccc1	-3	-3
CCCc1cc(=O)[nH]c(SCc2cn3ccccc3n2)n1	3	3
CCc1cc(CNC(=O)Nc2nnc(C(C)(C)C)s2)on1	-2	12
CNC(=O)Cc1noc(CC2CCCc3cc(OC)ccc32)n1 (configuration not stated)	0	-1
COc1ccc(NC(=O)c2c(N)c(C(=O)c3ccc(C(C)C)cc3)n3ccccc23)cc1	-3	-8
CCCSc1nc2c(c(=O)[nH]c(=O)n2C)n1CCOC	14	8
c1coc(CCn2ccnc2-c2ccc(-n3cccn3)cc2)c1	-2	-5
COc1ncc(C(=O)N(C)Cc2nc3ccc(F)cc3[nH]2)cn1	4	4
COCCCN1C(=O)CC(CC(=O)N2CCCC(c3ccccc3C)C2)(c2ccccc2Cl)C1=O (configuration not stated)	17	6
Cc1ccsc1CN(Cc1ccc(F)cc1)C(=O)CN(C(=O)Nc1ccc(Br)cc1)C1CC1	-4	6
Cc1ccccc1-n1c(Cc2ccccc2)nnc1SCCCCC(=O)NC(c1ccccc1)c1ccccc1	-3	10
CN(C)[C@@H]1C(=O)C(C(=O)NCN2CCCC2)C(=O)[C@@]2(O)C(=O)C3=C(O)c4c(O)cccc4[C@@](C)(O)C3CC12 (some centres not stated)	-5&-3	-11&-5
Cn1cnc(S(=O)(=O)N2CCN(c3nccnc3NS(=O)(=O)c3ccc4c(c3)OCCO4)CC2)c1	2	11
O=C(NCC1CCCO1)C1CCN(C2CCN(C(=O)C3=CCCCC3)CC2)CC1 (configuration not stated)	-2	-5
CC(OC(=O)c1ccoc1)c1nccs1 (configuration not stated)	19	6
CCOC(=O)c1ccc2c(c1)nc(SCc1cc(C(F)(F)F)ccc1F)n2CCc1ccc(OC)cc1	0	-3
Cc1ccc(C(C)C)c(OCCCN2C(=O)C(=O)c3cc(C)ccc32)c1	-6	0

Part of the list above, field by field:
canonical_smiles: Cn1cnc(S(=O)(=O)N2CCN(c3nccnc3NS(=O)(=O)c3ccc4c(c3)OCCO4)CC2)c1
  NPYLR7 agonist = 2	NPYLR7 agonist max-min = 11

canonical_smiles: O=C(NCC1CCCO1)C1CCN(C2CCN(C(=O)C3=CCCCC3)CC2)CC1 (configuration not stated)
  NPYLR7 agonist = -2	NPYLR7 agonist max-min = -5

canonical_smiles: CC(OC(=O)c1ccoc1)c1nccs1 (configuration not stated)
  NPYLR7 agonist = 19	NPYLR7 agonist max-min = 6

canonical_smiles: CCOC(=O)c1ccc2c(c1)nc(SCc1cc(C(F)(F)F)ccc1F)n2CCc1ccc(OC)cc1
  NPYLR7 agonist = 0	NPYLR7 agonist max-min = -3

More records
SMILES	NPYLR7 agonist	NPYLR7 agonist max-min
COc1ccc(Cn2c(-c3cccnc3)n[nH]c2=S)cc1	4	0
CSCCC1c2c(n[nH]c2-c2cccs2)OC(=N)C1C#N (configuration not stated)	-5	-9
Cc1ccc(NC(=O)N2CCc3nc(-c4ccccc4)nc(N4CCOCC4)c3C2)cc1	1	17
C[C@H](NC(=O)c1cc2c(nc1Cl)CCC2)C(O)(c1ccccc1)c1ccccc1	-7	-13
C=CCN(CC(=O)N1CCc2sccc2C1c1ccc(C(C)(C)C)cc1)C(=O)C1CCC1 (configuration not stated)	31	32
COCCCN(CC(=O)Nc1cc(C(C)(C)C)nn1-c1cccc(C)c1)C(=O)Nc1ccc(Cl)cc1Cl	9	21
CCOc1ccc(C(=O)Nc2ccc(O)c(-c3nc4ccccc4o3)c2)cc1	-7	-13
Cc1nn(CC(=O)Nc2ccc(Br)cc2F)c(C)c1[N+](=O)[O-]	15	8
c1nc(-c2cc(NC3CCCC3)nc3[nH]ccc23)cc(N2CCOCC2)n1	6	4
Cc1cc(C)cc(CN2C(=O)NC3(CCOc4ccccc43)C2=O)c1 (configuration not stated)	3	5
C=C(C)COc1ccc(-c2n[nH]c(C)c2-c2ccccc2)c(O)c1	-5	-7
COc1ccc(C)cc1C(C)NCc1ccc(-n2cncn2)c(F)c1 (configuration not stated)	-2	-4
O=C(Nc1ccc(I)cc1)c1c(O)c2ccccc2[nH]c1=O	-7	-12
O=C(NCCOc1ccc(-c2ccc(F)cc2)nn1)Nc1ccc(Cl)cc1	-3	-4
Cc1ccc(OC(C)C(=O)N2CCCCC2C(=O)Nc2ccc3c(c2)CCO3)cc1 (configuration not stated)	3	1
CCCCN(CC)C(=O)c1ccc(-c2cc(-c3ccccc3)n[nH]2)cc1	-2	-5
CN(Cc1ccc2ccccc2n1)Cc1cc(Cl)ccc1O	5	-39
Oc1oc(-c2cccc3ccccc23)nc1C=Nc1ccc(Br)cc1Br	0	-2
CNc1ncccc1C(=O)NCCC(=O)N1CCC(C)CC1	26	11
Cc1ccccc1Nc1nc(C)c([N+](=O)[O-])c(N(C)c2ccccc2)n1	-4	-12
O=C(c1ccc(N2CCC(NCc3scnc3-c3ccccc3)CC2)cc1)N1CCOCC1	17	7
CCN1CCc2nc(NC(=O)c3cc(Br)ccc3F)sc2C1	1	4
CC1CCCN1C(=O)c1cc(N2CCOCC2)nc2ccccc12 (configuration not stated)	1	5
O=C(NCCN1CCOCC1)c1ccc(N2CCC(N3CCC(c4ccccc4Cl)C3)CC2)cc1 (configuration not stated)	16	5
C=CCSc1nnc2c(n1)OC=Nc1ccc(Br)cc1-2	10	2
CS(=O)(=O)NC1=NCN(CCc2ccccc2)CN1	-13	-12
CCn1c(Nc2cccc(C)c2)nc2ccccc21	-2	-3
Cc1nn(CC(=O)O)c(C)c1[N+](=O)[O-]	1	1
CC(C)=N/N=c1\scc(-c2cccc(O)c2)n1C	1	-4
CN(C(=O)c1ccccc1N1CCC(NC(=O)Nc2ccccc2)CC1)C1CCCCC1	21	23
COc1cc2c(cc1OC)C(c1cccc(C(F)(F)F)c1)N(C(=O)CCc1ccccc1)CC2 (configuration not stated)	-10	-11
